VDR inhibitor: Inhibitors of the vitamin D receptor (VDR): qHTS; Vitamin D3 receptor (Homo sapiens), P11473; VDR-SRC2-3 peptide fluorescence polarization, 2 h; Potency, µM, without a hit: max response, negative = inhibition, usual class: inhibitors; 0.93% of 400,000 active; AID 504847, 2011; active means well fitted inhibition curve with a large enough effect; inconclusive means small, poorly fitted or top-dose-only effect, or another doubt; inactive means no such curve, though single readings can be large or run the other way; further: series mostly up to about 120 µM
Target sequence (P11473 whole entry, looked up): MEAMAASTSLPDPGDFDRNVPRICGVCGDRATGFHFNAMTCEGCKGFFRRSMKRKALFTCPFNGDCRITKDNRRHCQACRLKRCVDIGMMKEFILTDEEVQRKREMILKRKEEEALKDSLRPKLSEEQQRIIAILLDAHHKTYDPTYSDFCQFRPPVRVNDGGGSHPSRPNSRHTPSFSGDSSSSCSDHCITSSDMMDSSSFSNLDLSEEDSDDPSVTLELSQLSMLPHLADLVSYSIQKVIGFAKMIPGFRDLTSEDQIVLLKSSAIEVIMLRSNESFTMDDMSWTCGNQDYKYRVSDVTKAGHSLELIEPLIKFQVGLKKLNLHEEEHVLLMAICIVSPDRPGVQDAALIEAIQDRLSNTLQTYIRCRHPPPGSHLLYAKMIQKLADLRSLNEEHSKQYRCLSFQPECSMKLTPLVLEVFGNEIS
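The screen uses fluorescence polarization to detect compounds that interfere with recruitment of the SRC2-3 coactivator peptide to VDR; plates are read after 2 h at room temperature.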
* = called active by the depositor; ? = inconclusive; & = joins results of further samples. On the % scale 0 is the no-effect control and ±100 the full control effect; potency means the concentration at half of the fitted maximal effect.

SMILES | VDR inhibitor
C=C(C)COc1ccc(-c2n[nH]c(C)c2-c2ccccc2OC)c(O)c1 | 4%
CCOC(=O)N1CCC(Nc2c(NCCN3CCN(c4cccc(Cl)c4)CC3)c(=O)c2=O)CC1 | -5%
COc1ccc([N+](=O)[O-])cc1/C=N/NC(=O)Cc1ccccc1 | -18%
O=C(CCNS(=O)(=O)c1cccc2nsnc12)NCc1ccco1 | 15%
Cc1ccc2[nH]c(=O)c(CN(C)C(=O)c3ccccn3)cc2c1 | -7%
Cc1ccc(N2CC(C(=O)Nc3cc(C(F)(F)F)ccc3N3CCCC3)CC2=O)cc1 (stereo not drawn) | 4%
CCC(CO)Oc1cc(NCc2ccccc2Cl)c2ncn(C(C)C)c2c1 (stereo not drawn) | -1%
S=C(NC1CCCCC1)NC1CC2CCC(C1)N2Cc1ccccc1 (stereo not drawn) | -10%
Cc1nn(C)c(Cl)c1C(=O)NCC(=O)O | 1%
Cc1ccccc1OCC(=O)Nc1nnc(S(=O)(=O)N2CCCC2)s1 | -19%&12%
Cc1nn(-c2ccccc2)c2sc(C(=O)N3CCCCC3)cc12 | 10%
COc1cc(NC(=O)CN2CCCCC2C)c(C)cc1[N+](=O)[O-] (stereo not drawn) | 3%
O=C(Nc1ccc(Cl)cc1Cl)c1cc(S(=O)(=O)N2CCc3ccccc32)ccc1F | 10%
CC(C)(C)c1csc(Sc2ccc([N+](=O)[O-])cn2)n1 | -16%
Cc1cc(NC(c2cccnc2)c2ccc3cccnc3c2O)no1 (stereo not drawn) | -4%
O=S(=O)(NCc1ccco1)N1CCCCCC1 | 13%
CC(=O)NC(CC(=O)OCC(=O)c1c(N)n(CC(C)C)c(=O)n(C)c1=O)c1ccccc1 (stereo not drawn) | -15%
O=C(CCC(=O)c1ccc(Cl)cc1)OCn1nnc2ccccc2c1=O | -20%
O=C1COc2ccc(C(=O)COC(=O)CNC(=O)C3CCCCC3)cc2N1 | 4%
CN1C(=O)C2(OCC(COc3ccc(Cl)cc3)O2)c2ccccc21 (stereo not drawn) | 18%
O=C(CN1C(=O)CSc2ccc(S(=O)(=O)N3CCOCC3)cc21)NCc1cccnc1 | -7%
CCCC(=O)Nc1ccc(Cc2ccc(NC(=O)CCC)c(C(=O)O)c2)cc1C(=O)O | -8%
COc1ccc(S(=O)(=O)Nc2ccc(N3CCOCC3)cc2)cc1Br | -5%
O=C(O)c1ccc[nH]c1=S | 9%
Cc1[nH]c2ccccc2c1C(c1ccccn1)N1CCCC1 (stereo not drawn) | 0%
O=C(Nc1nncs1)c1cccc(S(=O)(=O)N2CCc3ccccc32)c1 | ?
CC1Cc2cc(S(=O)(=O)CCC(=O)Nc3ccc(OC(F)(F)F)cc3)ccc2N1C(=O)C1CC1 (stereo not drawn) | 8%
CCn1nc(C)cc1C(=O)NC1CC(C)(C)Cc2c1cnn2-c1cccc(F)c1 (stereo not drawn) | -11%
Cc1cccc(N2CCN(CCNC(=O)c3cc4c(s3)CS(=O)(=O)C4)CC2)c1C | -4%
O=C(COC(=O)c1ccco1)NC1CCCC1 | -21%
O=C(O)c1cc2ccc3cccc4ccc(c1)c2c34 | -8%
CCc1ccccc1NC(=O)CSc1nc2c(oc3ccccc32)c(=O)n1-c1ccccc1 | 2%
C=CCS/C(=N\n1cnc2ccccc2c1=O)N(CC)CC | -13%
O=C(CN1CCN(S(=O)(=O)c2ccccc2F)CC1)NCC1(N2CCOCC2)CCCCC1 | 12%
CC1=NN(c2ccccc2)C(=O)/C1=C/c1c(O)n(-c2ccc(F)cc2)[nH]c1=O | -14%
COc1ccc(CN(C)S(=O)(=O)c2nnc(NC(=O)c3ccccc3Br)s2)cc1 | 1%
CCc1nnc(NC(=O)C2CC(=O)N(CCc3ccc(F)cc3)C2)s1 (stereo not drawn) | -11%
Cc1ccc(C)c(CN2C(=O)COc3ccc(C(=O)c4ccccc4C(=O)O)cc32)c1 | 3%
CC1CCc2nc(NC(=O)Nc3ccc4c(c3)OCO4)sc2C1 (stereo not drawn) | 1%
O=C(COc1ccccc1)N1CCN=C1SCc1ccccc1F | 9%
C=CCOc1nc(-c2ccncc2)nc2ccccc12 | 0%
O=C(Nc1ccc(F)cc1F)N1CCCCCC1 | 4%
O=C(Nc1cccnc1)Nc1ccc(F)c(Cl)c1 | -3%
Cc1nc(C)c(/C(O)=C\c2nc3ccc([N+](=O)[O-])cc3oc2=O)o1 | -1%
COc1ccc(-c2c(-c3cc(OC)cc(OC)c3)n(C)c3ccc(-c4ccc(N(C)C)nc4)cc23)cc1 | -14%
Cn1nnnc1SCC(=O)Nc1ccc(Cl)c(S(=O)(=O)N2CCOCC2)c1 | -26%
Cc1ccc2c(CN3CCN(Cc4ccccc4Cl)CC3)cc(=O)oc2c1 | 4%
Cc1ccc(NC(=O)Nc2nnc(N(CC(C)C)CC(C)C)s2)cc1Cl | 11%
CC(Nc1ccc2c(c1)OCCO2)C(=O)Nc1ccc2c(c1)OCO2 (stereo not drawn) | -17%
O=C(CCC1CCCN(C(=O)C2=CCCC2)C1)N1CCN(c2ccccn2)CC1 (stereo not drawn) | -22%
CC1CCCC(C)N1C(=O)Cn1cnc2cc([N+](=O)[O-])ccc2c1=O (stereo not drawn) | 1%
O=C1C2C3c4ccccc4C(c4ccccc43)[C@@H]2C(=O)N1c1ccccn1 (stereo partly drawn) | -2%
CC(C)c1ccc(NC(=O)CN(Cc2ccccc2)S(C)(=O)=O)cc1 | 20%
CCn1c(SCC(=O)NC2CC2)nnc1-c1csc(C)c1 | 7%
CC1Oc2ccccc2OC1(O)c1ccc2ccccc2n1 (stereo not drawn) | -15%
COc1ccc(CC(=O)OCC(=O)NC(=O)NC2CCCC2)cc1 | 9%
CCCNC(=S)NC1CC2CCCC(C1)N2Cc1ccc(F)cc1 (stereo not drawn) | -21%
O=C(COC(=O)c1ccc(S(=O)(=O)N2CCCC2)cc1)Nc1cccc(F)c1 | -14%
COc1cc(OC)cc(C(=O)NNC(=O)CN2C(=O)NC(C)(c3ccccc3)C2=O)c1 (stereo not drawn) | 1%
CN(C)S(=O)(=O)c1ccc(C(=O)NCC(=O)Nc2ccc(F)c(F)c2)cc1 | 3%
(list continues)
SMILES | VDR inhibitor
COc1cc(NC2=Nc3cccc4cccc2c34)cc(OC)c1OC | -6%
Cc1cccc(NC(=O)CSc2nc(=O)n(Cc3cccnc3)c3c2CCC3)c1C | 6%
C[C@@H]1CC=C[C@H]2[C@H]1C(=O)N(Cc1ccccc1)[C@H]2c1ccc2ccccc2c1 | -9%
O=S1OC(c2ccccc2)c2cc(Cl)ccc21 (stereo not drawn) | 22µM*
Cn1nnnc1SCC(=O)c1ccco1 | 2%
COc1ccc(NS(=O)(=O)c2ccc3c(c2)NC(=O)CCS3)c(OC)c1 | 14%
CS(=O)(=O)Nc1c(O)ccc2c1CCC[C@H]2C1=NCCN1 | -3%
N=C1/C(=C\c2ccc(Br)o2)C(=O)N=C2SC(CC(=O)N3CCCCC3)=NN12 | 4%
CCN1CCN(c2ccc(NC(=O)c3ccc(Cl)c(S(=O)(=O)N4CCCC4)c3)cc2)CC1 | 1%
CCC/C(C#CCCN1C(=O)c2ccccc2C1=O)=C1/c2ccccc2C(=O)N1c1ccccc1 | -6%
Cc1ccc(-n2nc(C)c3c(-c4cccs4)c(C#N)c(N)nc32)cc1 | 8%
COc1ccccc1CNC(=O)C1CCCN(S(=O)(=O)c2c(C)[nH]c(=O)[nH]c2=O)C1 (stereo not drawn) | 13%
CCC(C)Oc1cc(-c2ccnc(Nc3cccc(Cl)c3)n2)ccn1 (stereo not drawn) | ?
Cc1ccc(C)c(S(=O)(=O)N2CCN(C(=O)CCC(=O)NCc3ccc(Cl)cc3)CC2)c1 | 3%
CCOCCCN1CC(C(=O)NCc2ccc3c(c2)OCO3)CC1=O (stereo not drawn) | -20%
COc1ccc(N(C(=O)c2ccc(F)cc2)C2=CC3CCC(C2)N3C)cc1 (stereo not drawn) | -4%
Cn1cc(CNC(=O)/C=C/c2ccc(Cl)cc2)cn1 | -4%
CCCN(C(=O)c1ccc(S(=O)(=O)N2CCCC2)cc1)C1CCS(=O)(=O)C1 (stereo not drawn) | 10%
Cc1ccc(SCC(=O)NCc2ccccc2)cc1 | -7%
COc1ccccc1NS(=O)(=O)c1ccc(C)c(C(=O)NC2=NCCS2)c1 | -2%
O=C(CCC(=O)N1CCN(S(=O)(=O)c2ccc(Cl)cc2)CC1)Nc1ccc(Cl)cc1Cl | -8%
COc1ccc(-c2nc(N/N=C(\C)c3ccc(O)cc3)c3ccccc3n2)cc1 | -10%
OC1CCCCC1Sc1nc2ccccc2s1 (stereo not drawn) | 3%
NC1=NC(=O)/C(=C\c2ccc(-c3ccc(Cl)cc3)o2)S1 | -11%
[N-]=[N+]=NC[C@H](Cc1ccccc1)N1CC[C@@H](NC(=O)OCc2ccccc2)CCC1=O | -16%
Cc1ccc(NC(=O)CCNS(=O)(=O)c2cccc3nsnc23)cc1 | 5%&-22%
O=C1NC[C@H](c2ccccc2)N(CCc2cccc(F)c2)C1=O | 7%
Cc1ccc(C)c(Oc2coc3cc(O)ccc3c2=O)c1 | -7%
CC(=O)c1cccc(NC(=O)c2cc(-c3ccco3)nc3ccccc23)c1 | 10%
Cc1cccnc1NC(=S)NC(=O)/C=C/c1ccccc1 | 1%
CCC(C)(CC(=O)Nc1nccs1)c1ccccc1 (stereo not drawn) | -1%
COc1ccccc1NC(=O)CSc1ncc2c(n1)-c1cc(Cl)ccc1N(C)S2(=O)=O | 3%
O=C(NCCOc1nc(N2CCOCC2)nc(N2CCOCC2)n1)Nc1ccccc1 | 17%
O=C1C(=O)N(CCCn2ccnc2)C(c2cccnc2)/C1=C(/O)c1ccc(F)cc1 (stereo not drawn) | -1%
Cc1cc(C)n(-c2nc3ccccc3nc2N2CCCC2)n1 | 15%
NC(=O)c1ccc(Oc2ccc3c(c2)CCC3)c([N+](=O)[O-])c1 | 0%
CN(c1ccc(C(=O)Nc2cccnc2)cc1)S(C)(=O)=O | 3%
COc1ccccc1C(=O)Nc1cccc2c1CCCC2 | -15%
O=C(CCCn1c(=O)[nH]c2cc(Cl)ccc2c1=O)N1CCN(c2ccc([N+](=O)[O-])cc2)CC1 | -11%
COc1ccc(C2Nc3ccccc3C(=O)N2Cc2ccco2)cc1COc1ccccc1F (stereo not drawn) | -13%

A run of entries taken from the entries so far, as a working copy:
SMILES | VDR inhibitor
NC1=NC(=O)/C(=C\c2ccc(-c3ccc(Cl)cc3)o2)S1 | -11%
[N-]=[N+]=NC[C@H](Cc1ccccc1)N1CC[C@@H](NC(=O)OCc2ccccc2)CCC1=O | -16%
Cc1ccc(NC(=O)CCNS(=O)(=O)c2cccc3nsnc23)cc1 | 5%&-22%
O=C1NC[C@H](c2ccccc2)N(CCc2cccc(F)c2)C1=O | 7%
Cc1ccc(C)c(Oc2coc3cc(O)ccc3c2=O)c1 | -7%
CC(=O)c1cccc(NC(=O)c2cc(-c3ccco3)nc3ccccc23)c1 | 10%
Cc1cccnc1NC(=S)NC(=O)/C=C/c1ccccc1 | 1%
CCC(C)(CC(=O)Nc1nccs1)c1ccccc1 (stereo not drawn) | -1%
COc1ccccc1NC(=O)CSc1ncc2c(n1)-c1cc(Cl)ccc1N(C)S2(=O)=O | 3%
O=C(NCCOc1nc(N2CCOCC2)nc(N2CCOCC2)n1)Nc1ccccc1 | 17%
O=C1C(=O)N(CCCn2ccnc2)C(c2cccnc2)/C1=C(/O)c1ccc(F)cc1 (stereo not drawn) | -1%
Cc1cc(C)n(-c2nc3ccccc3nc2N2CCCC2)n1 | 15%
NC(=O)c1ccc(Oc2ccc3c(c2)CCC3)c([N+](=O)[O-])c1 | 0%
CN(c1ccc(C(=O)Nc2cccnc2)cc1)S(C)(=O)=O | 3%

Further entries:
SMILES | VDR inhibitor
CC(NC(=O)c1ccccc1Cl)C1COc2ccccc2O1 (stereo not drawn) | 0%
Cc1ccc(Oc2nnc(-c3ccccc3)cc2C#N)cc1 | 3%
Cn1c(O)c(N=NC(=S)Nc2ccccc2F)c2cc(S(=O)(=O)N3CCOCC3)ccc21 | 9%
COc1ccc(C=NCCCN2CCOCC2)cc1 | -20%
CCOCCCNc1nc2ccccc2n2c(CC)nnc12 | -9%
CC1(C)C/C(=N\O)C(C(O)c2cccc([N+](=O)[O-])c2)C(C)(C)N1 (stereo not drawn) | 24%
Cc1cccc(C(C(=O)NC2CCCC2)N(C(=O)c2csnn2)C2CC2)c1 (stereo not drawn) | 18%
O=c1c2ccccc2nnn1CSc1nc2sc3c(c2c(=O)n1CC1CCCO1)CCC3 (stereo not drawn) | 4%
CCCN(C(=O)CSc1nnnn1C)c1c(N)n(Cc2ccccc2)c(=O)[nH]c1=O | 5%
CC(=O)Nc1ccc(C(=O)CSc2nnc(-c3ccccc3)n2-c2ccccc2)cc1 | 4%
COC(=O)c1nc2n(n1)C(c1cc(OC)ccc1OC)C(C(=O)Nc1ccc(C)cc1C)=C(C)N2 (stereo not drawn) | -3%
COc1ccc(SC[C@H](C)CN2CC[C@H](NC(=O)OCc3ccccc3)CCC2=O)cc1 | -4%
COc1ccc(S(=O)(=O)N2CCN(CC(=O)Nc3cc(Cl)ccc3Cl)CC2)cc1 | -8%
Cc1ccc(NC(=O)c2ccc(Cl)c(S(=O)(=O)Nc3c(C)n(C)n(-c4ccccc4)c3=O)c2)cc1Cl | 18%
O=c1[nH]c(=S)n(-c2ccc(Br)cc2)c2ncccc12 | -14%
COc1cccc(NC(=O)CCC2CCN(C(=O)c3cncs3)CC2)c1 | ?
Cc1ccc(CCNC(=O)c2ccc3c(c2)nc2n3CCC(C)C2)cc1 (stereo not drawn) | 9%
Cc1cc(C)c2cc(C(=O)Nc3ccc4c(c3)OCO4)[nH]c2c1 | 4%
COc1ccccc1CNC(=O)CCn1c(=O)[nH]c2ccsc2c1=O | -15%

This is a subset; count on the stated rates, not on these rows.
